AF4-AF9 inh – MLL-AF4/AF9 protein interaction inhibition; hit rate 0.47% among 350,000; AlphaScreen, biotin-AF4 peptide binding to FLAG-AF9; inhibition, % at 10 µM;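 active means every replicate reaching a set inhibition limit, whatever the replicate mean, cut at about 25% in these data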;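 further: 0% = plate neutral control median and 100% = total signal loss; the record names both 10 and 1 µM as test concentration; the first replicate is given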
Target sequence (P42568 whole entry, looked up): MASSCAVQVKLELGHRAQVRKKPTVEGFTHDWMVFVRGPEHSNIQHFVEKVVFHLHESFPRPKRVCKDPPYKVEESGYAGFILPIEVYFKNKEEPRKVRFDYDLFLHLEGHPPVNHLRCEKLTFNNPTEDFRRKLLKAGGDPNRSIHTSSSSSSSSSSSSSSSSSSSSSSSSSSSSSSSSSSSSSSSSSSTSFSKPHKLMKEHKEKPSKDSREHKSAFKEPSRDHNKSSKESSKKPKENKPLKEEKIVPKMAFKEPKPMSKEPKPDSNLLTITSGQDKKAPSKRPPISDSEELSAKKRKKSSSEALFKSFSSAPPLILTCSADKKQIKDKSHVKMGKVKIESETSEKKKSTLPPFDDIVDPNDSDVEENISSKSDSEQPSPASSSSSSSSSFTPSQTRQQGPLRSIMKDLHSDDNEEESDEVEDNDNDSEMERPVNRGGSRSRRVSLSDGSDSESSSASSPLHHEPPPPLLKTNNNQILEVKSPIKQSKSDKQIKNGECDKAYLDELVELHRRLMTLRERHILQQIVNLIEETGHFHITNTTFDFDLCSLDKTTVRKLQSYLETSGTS
An asterisk follows results filed as active.

AF4-AF9 inh | smiles
0.2 | N#C[C@H]1[C@@H](c2ccccc2C2=CCCC2)[C@H](CO)N1C(=O)C1CC1
-7.7 | CSc1ccc(CNC(=O)C2CCC(=O)N(CC3CCCCC3)C2)cc1 (centres undefined)
-4.4 | CO[C@H]1CN(C)C(=O)c2ccc(NC(=O)c3ccc4c(c3)OCO4)cc2OC[C@@H](C)N(CC2CC2)C[C@@H]1C
3.6 | COC(=O)[C@]12CCCCC=C1N(Cc1ccco1)C(=O)[C@H](CC(=O)N1CCC(c3ccccc3)CC1)C2
-20.2 | COC(=O)c1ccc(N2C(c3cc(OC)cc(OC)c3)=Cc3ccc(-c4cccnc4)cc3C2CC(=O)C2CC2)cc1 (centres undefined)
-2.1 | C[C@@H]1CCCCO[C@H](CN(C)C(=O)NC2CCCCC2)[C@H](C)CN([C@@H](C)CO)C(=O)c2cc(NC(=O)Nc3ccccc3)ccc2O1
-0.9 | C[C@H](CO)N1C[C@H](C)[C@H](CN(C)CC2CCOCC2)Oc2cc(C#Cc3cccnc3)ccc2S1(=O)=O
-0.4 | CCC(=O)Nc1ccc2c(c1)C(=O)N(C)C[C@@H](OC)[C@H](C)CN(C(=O)c1ccc(F)cc1)[C@@H](C)CO2
-0.7 | COc1ccc(S(=O)(=O)Nc2ccc3c(c2)CC(=O)N([C@H](C)CO)C[C@@H](C)[C@@H](CN(C)C(=O)Nc2ccc(C(F)(F)F)cc2)O3)cc1
4.6 | C[C@@H]1CN([C@H](C)CO)C(=O)Cc2cc(NC(=O)Cc3cn(C)c4ccccc34)ccc2O[C@H]1CN(C)CC1CCCCC1
-8.4 | COc1ccc2oc(C(=O)OCC(=O)NC3CCS(=O)(=O)C3)c(C)c2c1 (centres undefined)
-2.7 | COc1ccc(NC(=O)N(C)C[C@@H]2Oc3ccc(NS(C)(=O)=O)cc3C(=O)N([C@H](C)CO)C[C@H]2C)cc1
1.2 | CCC(=O)N[C@@H]1CC[C@H](CCn2cc(-c3cccc(OC)c3)nn2)O[C@H]1CO
2.5 | CCc1nc2c(OCC(=O)c3ccc(Cl)cc3Cl)cccn2c1N(C)C(=O)c1ccncc1
-0.6 | O=C(NC1CCCC1)N1CC(=O)N2[C@H](CO)[C@@H](c3ccc(-c4ccncc4)cc3)[C@H]2C1
-2.2 | C[C@@H]1CN([C@@H](C)CO)C(=O)c2cc(NC(=O)Nc3ccc(F)cc3)ccc2O[C@@H]1CN(C)Cc1ccc(C(=O)Nc2ccccc2N)cc1
0.1 | CC(C)NC(=O)N[C@H]1CC[C@@H](CCNC(=O)C2CCCC2)O[C@H]1CO
-3.4 | C[C@@H]1CN([C@@H](C)CO)C(=O)c2cc(Br)cnc2O[C@@H]1CN(C)C(=O)NC1CCCC1
0.4 | COCC(=O)N1[C@H](C#N)[C@H](c2ccc(-c3cccc(F)c3)cc2)[C@H]1CO
-4.3 | C[C@H](CO)N1C[C@H](C)[C@@H](CN(C)C(=O)Nc2ccc(C(F)(F)F)cc2)OCCCC[C@H](C)Oc2ccc(NC(=O)c3ccncc3)cc2C1=O

Shown with each value named: part of the list above.
CSc1ccc(CNC(=O)C2CCC(=O)N(CC3CCCCC3)C2)cc1 (centres undefined)
  AF4-AF9 inh: -7.7

COCC(=O)N1[C@H](C#N)[C@H](c2ccc(-c3cccc(F)c3)cc2)[C@H]1CO
  AF4-AF9 inh: 0.4

COc1ccc2oc(C(=O)OCC(=O)NC3CCS(=O)(=O)C3)c(C)c2c1 (centres undefined)
  AF4-AF9 inh: -8.4

CC(C)NC(=O)N[C@H]1CC[C@@H](CCNC(=O)C2CCCC2)O[C@H]1CO
  AF4-AF9 inh: 0.1

(next part)
AF4-AF9 inh | smiles
5.6 | CCCN(C)C[C@H]1OCCCC[C@@H](C)Oc2ccc(NS(=O)(=O)c3ccc(C)cc3)cc2C(=O)N([C@H](C)CO)C[C@H]1C
-2.8 | CC(C)CC#Cc1cnc2c(c1)C(=O)N([C@H](C)CO)C[C@@H](C)[C@@H](CN(C)S(=O)(=O)c1cn(C)cn1)O2
-3.3 | COc1ccc(NC(=O)N(C)C[C@@H]2Oc3ccc(NS(=O)(=O)c4cn(C)cn4)cc3CC(=O)N([C@H](C)CO)C[C@H]2C)cc1
1.9 | C[C@H](CO)N1C[C@H](C)[C@@H](CN(C)C(=O)C2CCOCC2)Oc2cc(C3=CCCCC3)ccc2S1(=O)=O
2.2 | C[C@@H]1CN([C@H](C)CO)C(=O)c2cc(NC(=O)CCC(F)(F)F)ccc2O[C@H]1CN(C)CC1CCCCC1
-0.6 | C[C@@H]1CN([C@H](C)CO)C(=O)c2cc(NS(=O)(=O)c3ccccc3)ccc2O[C@@H]1CN(C)C(=O)Nc1ccc(F)cc1
3.0 | CO[C@H]1CN(C)C(=O)c2cc(NC(=O)c3ccccc3F)ccc2OC[C@H](C)N(C(C)=O)C[C@H]1C
1.3 | CCCC(=O)N1CCC2(CC1)CN(Cc1ccccc1F)[C@H](CO)c1c2c2ccc(OC)cc2n1C
-0.1 | COc1ccc(NC(=O)N[C@@H]2CC[C@H](CCn3cc(C4(O)CCCC4)nn3)O[C@H]2CO)cc1
1.4 | COc1cccc(NC(=O)N(C)C[C@@H]2OCc3cnnn3CCCC(=O)N([C@H](C)CO)C[C@H]2C)c1
6.6 | Fc1cccc(CN2[C@@H]3CNC[C@H]2C3c2ccc(/C=C/c3ccccc3)cc2)c1 (some centres undefined)
-0.1 | C[C@@H]1CN([C@H](C)CO)C(=O)c2cc(NS(=O)(=O)c3cccs3)ccc2O[C@@H]1CN(C)Cc1ccc(C(=O)Nc2ccccc2N)cc1
4.0 | Cc1noc(C)c1S(=O)(=O)Nc1ccc2c(c1)C(=O)N([C@H](C)CO)C[C@@H](C)[C@@H](CN(C)Cc1ccccc1)OCCCC[C@H](C)O2
0.3 | COCCCNC(=O)C[C@@H]1C[C@@]2(C(=O)OC)CC(C)(C)CC=C2N(CCc2ccc(OC)c(OC)c2)C1=O
11.8 | Brc1ccc([C@H]2C=C[C@H]3CCCN4CC[C@H]2[C@@H]3[C@]42CO2)cc1
7.8 | C[C@@H]1CN([C@H](C)CO)C(=O)c2cccc(NC(=O)c3cnccn3)c2O[C@H]1CN(C)Cc1ccc(-c2ccccc2)cc1
-10.0 | CO[C@@H]1CN(C)C(=O)c2cc(NS(=O)(=O)CC(F)(F)F)ccc2OC[C@H](C)N(C(=O)NC(C)C)C[C@@H]1C
1.0 | C[C@@H]1CN([C@@H](C)CO)C(=O)Cc2cc(NS(=O)(=O)c3ccc(Cl)cc3)ccc2O[C@@H]1CN(C)S(=O)(=O)c1ccc(F)cc1
-13.5 | O=C(N[C@H]1CC[C@H](CC(=O)N2CCc3ccccc3C2)O[C@H]1CO)C1CCC1
-8.5 | O=C(C[C@@H]1C=C[C@@H](NS(=O)(=O)c2ccc(F)cc2)[C@@H](CO)O1)NC1CCCCC1
-0.5 | CCC(=O)N[C@H]1C=C[C@H](CC(=O)NCCN2CCCCC2)O[C@H]1CO
-7.4 | C[C@@H]1CN([C@H](C)CO)C(=O)c2cc(-c3ccccc3F)cnc2O[C@H]1CN(C)C
2.3 | CO[C@H](CN(C)Cc1cc(F)ccc1F)[C@H](C)CN([C@@H](C)CO)S(=O)(=O)c1ccc(Cl)cc1
-0.9 | CCCNC(=O)Nc1ccc2c(c1)OC[C@H](C)N(Cc1cncnc1)C[C@@H](C)[C@@H](OC)CN(C)C2=O
-0.3 | CSc1nc(=O)n(CCC#N)nc1SC
1.8 | C[C@H](CO)N1C[C@H](C)[C@H](CN(C)Cc2ccc(C(=O)Nc3ccccc3N)cc2)Oc2ccc(NC(=O)CCN3CCOCC3)cc2C1=O
0.5 | CNC[C@@H]1Oc2c(NC(=O)Nc3ccc(C(F)(F)F)cc3)cccc2C(=O)N([C@@H](C)CO)C[C@H]1C
-11.5 | C/C=C/c1ccc([C@@H]2[C@H](CO)N(CC3CC3)C23CN(C(=O)COC)C3)cc1
2.0 | O=C(C[C@H]1CC[C@H](NC(=O)Nc2ccc3c(c2)OCO3)[C@@H](CO)O1)NCc1ccc(Cl)cc1
-12.5 | CCc1nc2ccc(C(=O)Nc3cc(-c4ccccc4)ccc3OC)cn2c1N(C)Cc1nccs1
9.0 | CCC(CC)C(=O)N(C)c1c(C)nc2c(OCc3ccccc3C)cccn12
1.2 | CNC(=S)NN=C(C)c1ccc(OC)cc1O
0.4 | O=C(Nc1ccccc1)Nc1ccc2c(c1)[C@@H]1C[C@@H](CC(=O)N3CCCCC3)O[C@@H](CO)[C@@H]1O2
1.8 | CCCNC(=O)N(C)C[C@@H]1Oc2cc(-c3cccnc3)ccc2S(=O)(=O)N([C@H](C)CO)C[C@@H]1C
-1.9 | O=C(C[C@@H]1C=C[C@@H](NC(=O)c2ccccn2)[C@H](CO)O1)NCc1cccc(F)c1
-17.7 | Cc1cc(C(=O)Nc2cccc3c2O[C@H](CN(C)CC2CCCCC2)[C@@H](C)CN([C@@H](C)CO)C3=O)n(C)n1
-0.6 | O=C(NCc1ccc(F)cc1)c1cc(C2CCCCN2C(=O)OCCF)on1 (centres undefined)
-0.7 | COc1ccc(CCCNC(=O)C2Cc3c(-c4ccc(NC(C)=O)cc4)ccnc3O2)cc1 (centres undefined)
3.5 | COCC(=O)Nc1ccc2c(c1)C(=O)N(C)C[C@H](OC)[C@H](C)CN(C(=O)Cc1cccnc1)[C@H](C)CO2
1.3 | C[C@@H]1CCCCO[C@@H](CN(C)Cc2ccccc2)[C@H](C)CN([C@@H](C)CO)C(=O)c2cc(NS(=O)(=O)c3cccs3)ccc2O1

Shown field by field: part of the list above.
Brc1ccc([C@H]2C=C[C@H]3CCCN4CC[C@H]2[C@@H]3[C@]42CO2)cc1
  AF4-AF9 inh = 11.8
C[C@@H]1CN([C@H](C)CO)C(=O)c2cccc(NC(=O)c3cnccn3)c2O[C@H]1CN(C)Cc1ccc(-c2ccccc2)cc1
  AF4-AF9 inh = 7.8

Next section.
AF4-AF9 inh | smiles
2.5 | CC(C)C(N)c1csc(Nc2ccccn2)n1 (centres undefined)
-8.4 | O=C(C[C@H]1C[C@@H]2c3cc(NC(=O)Nc4ccccc4F)ccc3O[C@@H]2[C@H](CO)O1)NCc1cc(F)ccc1F
-0.1 | CO[C@H]1CN(C)C(=O)c2cc(NC(C)=O)ccc2OC[C@H](C)N(C(=O)c2ccccc2)C[C@@H]1C
-6.9 | COc1ccc(S(=O)(=O)Nc2cccc3c2O[C@@H](CN(C)C(=O)Nc2ccccc2)[C@H](C)CN([C@H](C)CO)C3=O)cc1
0.8 | Cc1cccc(NC(=O)CSc2nnc3ccc(-c4cccnc4)nn23)c1
-14.9 | COc1ccc(S(=O)(=O)Nc2cccc3c2O[C@@H](CN(C)CC2CC2)[C@@H](C)CN([C@H](C)CO)C3=O)cc1
14.0 | COc1cccc(-c2ccc3c(c2)[C@@H]2[C@@H](CCN2C(=O)NC2CCCCC2)[C@@H](CO)N3C)c1
-1.2 | COCC(=O)N1[C@H](C#N)[C@@H](c2ccccc2-c2ccccc2)[C@@H]1CO
-0.4 | CC(=O)N[C@H]1C=C[C@@H](CC(=O)NCc2ccc(Cl)cc2)O[C@H]1CO
-6.4 | C[C@@H]1CN([C@@H](C)CO)C(=O)c2cc(NC(=O)CCC(F)(F)F)ccc2O[C@H]1CN(C)C(=O)Nc1cccc2ccccc12
16.5 | C/C=C/c1ccc2c(c1)[C@@H]1[C@@H](CCN1C(=O)Cc1cccnc1)[C@H](CO)N2C
-1.3 | COc1ccc(NC(=O)N(C)C[C@@H]2OCCCC[C@H](C)Oc3ccc(NS(=O)(=O)c4cn(C)cn4)cc3C(=O)N([C@@H](C)CO)C[C@@H]2C)cc1
-3.7 | CO[C@@H]1CN(C)C(=O)c2ccc(NS(=O)(=O)c3ccc(Cl)cc3)cc2OC[C@@H](C)N(C)C[C@@H]1C
-1.5 | Cc1ccc(S(=O)(=O)Nc2ccc3c(c2)C(=O)N([C@@H](C)CO)C[C@H](C)[C@@H](CN(C)C(=O)NC2CCCCC2)O3)cc1
0.2 | CCCC#Cc1ccc([C@H]2[C@H](CO)N3C(=O)CN(C(=O)NC4CCCC4)C[C@@H]23)cc1
-1.4 | COc1ccc(CNC(=O)C[C@@H]2C=C[C@H](NC(=O)Nc3ccc4c(c3)OCO4)[C@@H](CO)O2)cc1
0.1 | Cc1ccccc1-c1cnc2c(c1)C(=O)N([C@H](C)CO)C[C@@H](C)[C@H](CN(C)CC1CCOCC1)O2
6.3 | NC(=O)c1cnc(Cc2c[nH]c3ccccc23)c(I)c1
1.0 | Cc1ccc(S(=O)(=O)Nc2ccc3c(c2)CC(=O)N([C@@H](C)CO)C[C@@H](C)[C@@H](CN(C)Cc2ccc4c(c2)OCO4)O3)cc1
0.3 | CCC(=O)N(CC)C[C@@H]1[C@@H](c2ccccc2)[C@H](CO)N1C(=O)C1CCC1
-0.5 | COC(=O)C[C@@H]1C[C@@H]2c3cc(NS(=O)(=O)c4cccc(OC)c4)ccc3O[C@@H]2[C@H](CO)O1
-2.6 | CCC(=O)N(CC)C[C@H]1[C@H](c2ccccc2)[C@@H](CO)N1C(=O)C1CCC1
-9.7 | O=C(Nc1ccccc1F)N1CC(=O)N2[C@@H](CO)[C@@H](c3ccc(-c4cccnc4)cc3)[C@@H]2C1
-3.8 | CN(C)c1ccc2c(c1)[C@H]1C[C@H](CC(=O)O)O[C@@H](CO)[C@H]1O2
-8.0 | C[C@@H](NC(=O)C[C@H]1C[C@H]2c3cc(NC(=O)NC4CCCC4)ccc3O[C@H]2[C@@H](CO)O1)c1ccccc1
-0.7 | Cc1cc(F)ccc1-c1cc(C(=O)Nc2ccc(F)cc2)[nH]n1
3.4 | C[C@@H]1CCCCO[C@@H](CN(C)S(=O)(=O)c2ccc(F)cc2)[C@@H](C)CN([C@@H](C)CO)C(=O)c2cc(NC(=O)CCCN(C)C)ccc2O1

High-throughput results deposited in PubChem BioAssay by Broad Institute.

This is a subset (hit frequency here may not be typical).
